KCNQ2 inh: KCNQ2 potassium channel inhibitors, primary screen, cell-based, CHO-K1, FluxOR thallium flux, B-score (AID 2156) | O88943 | 310,000 compounds, 1.1% hits | 20 min; hits give low values; only compounds with negative scores are shown here; some inactives read as strong as hits | B-score at 10 µM;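 active = fluorescence ratio B-score at most minus 3 library SDs, with starting brightness B-score within 2 library SDs, cut at about -5.5 in these data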
Target sequence (O88943 whole entry, looked up): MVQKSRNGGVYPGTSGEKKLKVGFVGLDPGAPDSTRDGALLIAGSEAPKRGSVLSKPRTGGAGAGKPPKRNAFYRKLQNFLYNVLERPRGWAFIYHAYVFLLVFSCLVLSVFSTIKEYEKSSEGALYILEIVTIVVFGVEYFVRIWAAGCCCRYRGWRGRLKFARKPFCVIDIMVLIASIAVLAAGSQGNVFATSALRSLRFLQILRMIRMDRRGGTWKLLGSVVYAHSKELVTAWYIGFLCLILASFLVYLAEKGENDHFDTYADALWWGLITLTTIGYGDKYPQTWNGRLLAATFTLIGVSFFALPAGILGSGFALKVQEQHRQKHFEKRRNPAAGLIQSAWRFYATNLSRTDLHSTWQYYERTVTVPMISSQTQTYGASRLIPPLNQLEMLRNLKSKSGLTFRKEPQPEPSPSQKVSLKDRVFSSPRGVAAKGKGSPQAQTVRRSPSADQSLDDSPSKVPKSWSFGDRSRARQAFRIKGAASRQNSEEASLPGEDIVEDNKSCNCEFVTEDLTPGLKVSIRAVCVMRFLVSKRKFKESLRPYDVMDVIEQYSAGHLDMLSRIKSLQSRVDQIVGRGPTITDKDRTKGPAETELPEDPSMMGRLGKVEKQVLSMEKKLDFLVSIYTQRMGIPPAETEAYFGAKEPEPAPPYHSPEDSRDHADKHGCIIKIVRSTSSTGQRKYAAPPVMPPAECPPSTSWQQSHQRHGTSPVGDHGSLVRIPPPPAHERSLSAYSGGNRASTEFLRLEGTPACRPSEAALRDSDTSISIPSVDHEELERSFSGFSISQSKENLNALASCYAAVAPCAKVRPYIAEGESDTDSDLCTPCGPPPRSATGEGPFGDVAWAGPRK
KCNQ2 inh baseline: also measured in KCNQ2 inh; calls as there; B-score; measured here: initial fluorescence intensity artifact check;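 brightness before thallium and not channel activity; 0 = typical well and far values either way flag optical interference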
An asterisk follows results filed as active; i = inactive; & = joins results of further samples. An excerpt. The share of hits here may be higher or lower than overall.

SMILES	KCNQ2 inh	KCNQ2 inh baseline
COC(=O)c1c(Cc2ccccc2Cl)c[nH]c1C	i	1.3
COc1cc(CC(=O)N2CCc3ccccc32)cc(OC)c1OC	i	-1
O=C(NNC(=O)C1CC(c2cccnc2)=NO1)Nc1cccc(F)c1 (configuration not stated)	i	2.5
CC(=O)c1c(C)n([O-])c2cc(F)c(F)cc2[n+]1=O	i	0.64
O=C1CCCc2c1cc(-c1ccccc1)n2-c1ccccc1	i	0.2
CCCCNc1cc(C)nc(NCc2ccccc2)n1	i	-0.06
CC(C)OCCCNC(=O)CN1C(=O)c2cccc3cccc1c23	i	1.5
CC(C)CC(=O)Nc1ccc(C(=O)NNC(=S)NC(=O)C2CCCCC2)cc1	i	0.12
COc1ccc(C(=O)/C=C2\NCC3c4ccccc4CCN3C2=O)cc1 (configuration not stated)	i	2.2
Cc1ccn2c(c1)nc(=S)n2C(=O)c1ccco1	i	-0.47
CN(C)c1ccc(NC(=S)NCC2CCCO2)cc1 (configuration not stated)	i	0.25
COc1ccc(CCNC(=O)CSc2nncs2)cc1	i	-0.47
Cc1c(NC(=S)N/N=C/C=C/c2ccccc2)c(=O)n(-c2ccccc2)n1C	i	3.1
CCOC(=O)N/N=C/c1ccc(Oc2ccccc2)cc1	i	0.12
COC(=O)N1CCN(c2ccc(C)cc2)C(C)C1 (configuration not stated)	i	0.9
CC(/C=N/n1c(-c2cc(C)[nH]n2)n[nH]c1=S)=C\c1ccccc1	i	0.81
Cc1cc(C)n(CCNC(=O)CCc2nnc(CCc3ccccc3)o2)n1	i	-3.6
C#Cc1ccc([C@H]2C=C(C(=O)N3CCN(Cc4ccccc4)CC3)O[C@@H](OCc3ccc(CO)cc3)C2)cc1	i	-1.9
N#Cc1c(C(F)(F)F)cc(Cc2ccccc2)nc1SCC(=O)NCC(=O)O	i	0.7
COc1ccc(CCNC(=O)C(=O)NCC2OCCN2S(=O)(=O)c2ccc(Cl)cc2)cc1 (configuration not stated)	i	0.33

For reference, part of the list above:
SMILES	KCNQ2 inh	KCNQ2 inh baseline
COC(=O)c1c(Cc2ccccc2Cl)c[nH]c1C	i	1.3
COc1cc(CC(=O)N2CCc3ccccc32)cc(OC)c1OC	i	-1

The results go on:
SMILES	KCNQ2 inh	KCNQ2 inh baseline
CN1CCN(C(=O)/C=C\c2ccc(Cl)cc2)CC1	i	0.02
Cc1ccc(S(=O)(=O)Nc2ccc3c(c2)nc2n3CCN(Cc3ccccc3)C2)cc1	i	-0.4
N#Cc1c(NC(=O)CN2C(=O)c3ccccc3C2=O)oc(-c2ccccc2)c1-c1ccccc1	i	1.9
O=C(CSc1ncnc2nc[nH]c12)Nc1ccc(Br)cc1Cl	i	0.74
Cc1[nH]c2ccccc2c1Cc1nnc(SCc2ccccc2)o1	i	-0.63
Cc1cccc(NC(=O)CSc2nnc(-c3ccco3)o2)c1C	i	0.21
CCC(=C(c1ccc(OC)cc1)c1ccc(OC)cc1)c1cn(CC(O)CN(CCO)CCO)c2ccccc12 (configuration not stated)	i	-1.1
COc1ccccc1CCNC(=O)C(=O)Nc1cc2c3c(c1)CC(=O)N3CCC2	i	0.1
CC(=O)Nc1ccc(S(=O)(=O)Nc2ccc(Cc3ccncc3)cc2)cc1	i	0.25
O=C(c1ccco1)N1CCN(C(c2ccc(F)cc2)c2nnnn2Cc2cccs2)CC1 (configuration not stated)	i	1.4
CCC(CC)COC(=O)C1=C(C)NC(=O)NC1c1ccc(N(C)C)cc1 (configuration not stated)	i	0.4
COc1cc2c(cc1NC(=O)CSc1ccc(C)cc1)oc1ccccc12	i	-0.78
COC(=NC(C)C)NC(C)C	i	0.52
Cc1ccc(N(NC(=O)C(O)(c2ccccc2)c2ccccc2)C(=O)CCl)cc1	i	-2.3
COc1ccccc1NC(=O)c1ccc(S(=O)(=O)N(C)C)cc1	i	-1.4
Cc1[nH]c2ccccc2c1SCC(=O)O	i	1.3
O=C(NCc1cc([N+](=O)[O-])ccc1O)c1cccc(NS(=O)(=O)c2ccccc2)c1	i	2
Cc1ccc(/C=N/NC(=O)c2cccc(S(=O)(=O)Nc3ccccc3Cl)c2)s1	i	0.6
CCc1cc(C(=O)N2CCCC(CCC(=O)N3CCN(c4ccccn4)CC3)C2)no1 (configuration not stated)	i	-1
CCC(Oc1ccccc1)C(=O)Nc1ccccn1 (configuration not stated)	i	2.2
Nc1ccc(S(=O)(=O)NC2(C(F)(F)F)NC(=O)N(c3ccccc3F)C2=O)cc1 (configuration not stated)	i	2.2
COc1ccc2cc(Br)ccc2c1CC(=O)NC1CC(C)(C)NC(C)(C)C1	i	-1.2
Cc1[nH]n(-c2ccccc2)c(=O)c1/C=C1\C=NN=C1c1ccccc1	i	1.1
O=C(NC1CCCN(Cc2ccc(Cl)cc2)C1)c1cccc(F)c1 (configuration not stated)	i	-1.1
CSc1ccccc1NC(=O)c1cc2ncc(Br)cn2n1	i	-0.72
Fc1cccc(CCN2CCNC[C@H]2Cc2cccc3ccccc23)c1	i	0.07
O=C(NCc1ccccc1)c1ccc2ccccc2n1	i	-1.7
CCN(C(=O)c1ccccc1F)c1nc(-c2ccc(OC)cc2)cs1	i	1.1
O=C(NCCCn1ccnc1)c1cnn2c1NC(c1ccccc1)CC2C(F)(F)F (configuration not stated)	i	1.6
Cc1ccc(-n2[nH]c(C)c(/C=N/NC(=O)c3cccc([N+](=O)[O-])c3)c2=O)cc1C	i	-0.01
O=C(O)CCNC1CCCCC1	i	1.4
O=C(Nc1ccc(Cl)cc1)N[C@@H]1c2c(ccc3ccccc23)OC[C@@H]1CO	i	0.53
CCN1CCN(C(=S)Nc2ccc(Cl)cc2)CC1	i	1.4
CC(C)(C)n1cnc2cc(NCc3cccs3)ccc21	i	-1.6
COc1ccc2c(c1OC)C(=O)OC2C1c2c(cc3c(c2OC)OCO3)CCN1C (configuration not stated)	i	0.65&0.5
C(#CCN1CCCC1)CC(c1ccccc1)c1ccccc1	i	0.39
COc1ccc(C2C(C(=O)c3sc(C)nc3C)=C(O)C(=O)N2CCCn2ccnc2)cc1 (configuration not stated)	i	0.09
O=C(Nc1cccc(S(=O)(=O)N2CCCC2)c1)c1ccncc1	i	-0.64
COc1cccc(S(=O)(=O)NCc2ccc(C(=O)N3CCN(Cc4ccccc4)CC3)cc2)c1	i	0.09
C/C(=N\NC(=O)C(=O)Nc1ccc(C)cc1)c1ccncc1	i	-2.8
CCOc1c(Nc2cccc(Cl)c2)c(=O)c1=O	i	0.22
CC(C)NC(=S)NN(c1ccccc1)c1ccccc1	i	-0.92
COC(=O)c1cc(OC)c(OC)cc1NC(=S)NC(=O)c1ccco1	i	-2.6
Cc1ccc(C(O)(C(=O)NNc2ccc3ccccc3n2)c2ccc(C)cc2)cc1	i	-0.67&-0.89
Cc1ccc(-c2nc(CS(=O)CC(=O)NCCCc3ccccc3)c(C)o2)cc1 (configuration not stated)	i	0.31
CCOc1ccc(C2CC(c3ccc(CC)cc3)n3nc(N)nc3N2)cc1 (configuration not stated)	i	-0.33
O=C(NN1C(=O)C2C3C=CC(C4CC34)C2C1=O)c1ccccc1Cl (configuration not stated)	i	2.3
CCc1ccc(NC(=O)N[C@H](C(=O)O)C(C)CC)cc1 (some centres not stated)	i	2.6
COc1ccc(C)cc1S(=O)(=O)NCCC1=CCCCC1	i	-0.3
O=C(CCc1nnc(Cc2cccc(C(F)(F)F)c2)o1)NCCc1ccccc1F	i	0.08
CCN(CC)Cc1cc(C(C)=O)ccc1O	i	1
CC(C)C(NS(=O)(=O)c1ccccc1)C(=O)N1CCCCCC1 (configuration not stated)	i	0.59
COc1ccc(NC(=O)CSc2nnc(Cc3ccc(C)cc3)c(=O)n2N)cc1	i	0.09
COc1cccc(CN2CCCC(C(=O)Nc3ccc(-c4cscn4)cc3)C2)c1 (configuration not stated)	i	1.6
O=C(c1cc(-c2ccco2)nc2ccccc12)N(Cc1nnc(-c2ccc(Cl)cc2)o1)C1CC1	i	1.3
CCCN(CCC)C(=O)Cc1coc2ccc3ccccc3c12	-7.3*	0.15*
O=C(Nc1cc(C(F)(F)F)ccc1N1CCOCC1)c1ccc(F)cc1	i	1
Cc1ccc(NC(=O)CCN2CCN(C/C=C/c3ccccc3)CC2)cc1C	i	-0.01
COc1ccc(Cc2nnc(-c3ccccc3)o2)cc1	i	1.7
COc1ccccc1C/C(N)=N/OC(=O)COc1cccc(C)c1	i	-0.2

Three entries from above, arranged by SMILES length, lowest first:
SMILES	KCNQ2 inh	KCNQ2 inh baseline
CCN(CC)Cc1cc(C(C)=O)ccc1O	i	1
CCOc1c(Nc2cccc(Cl)c2)c(=O)c1=O	i	0.22
COc1ccc(C)cc1S(=O)(=O)NCCC1=CCCCC1	i	-0.3

Additional results:
SMILES	KCNQ2 inh	KCNQ2 inh baseline
O=C(c1cnccn1)N(Cc1cccs1)C1(C(=O)NC2CCCCC2)CCCCC1	i	0.26
Nn1c(SCC(=O)Nc2ccccc2C(F)(F)F)nncc1=O	i	-0.2
O=C(NCc1ccccc1)C(c1cccs1)N(Cc1cccs1)C(=O)c1cnccn1 (configuration not stated)	-6*	-3.3*
Cc1c(C(=O)NC(=S)Nc2ccccc2N2CCCC2)cccc1[N+](=O)[O-]	i	0.51
Cc1sc2nc(SCC(=O)N(CCO)CCO)n(C3CCCCC3)c(=O)c2c1C	i	-1.8
CCCCCn1c(CCNC(=O)c2cccs2)nc2ccccc21	i	-0.84
CCNc1nc(NCC)nc(Oc2ccc(OCC)nn2)n1	i	-0.11
COc1ccc(Cl)cc1S(=O)(=O)NC(C)C(=O)NCc1ccccn1 (configuration not stated)	i	-0.11
COc1cccc(C(=O)Nc2ccccc2C(=O)NCC2CCCO2)c1 (configuration not stated)	i	0.64
COc1ccc(NC2CCCN(C(=O)COc3ccc(Cl)cc3C)C2)cc1OC (configuration not stated)	-6.1*	0.96*
COc1cc(/C=N/n2cnnc2-n2nc(C)cc2C)cc([N+](=O)[O-])c1O	i	1
O=C(NCCC1=CCCCC1)c1ccc(Cl)c(S(=O)(=O)Nc2ccccc2)c1	i	2.6
COc1ccc(C2CC(c3cccs3)=NN2C(=O)CCl)cc1OC (configuration not stated)	i	0.13
CC(=O)N1CCC(C(=O)OCc2ccccc2F)(c2ccccc2)CC1	i	1.8
COc1cc(O)ccc1/C=N/NC(=O)c1ccc([N+](=O)[O-])cc1	i	2.1
COc1ccc(C(=O)C[n+]2ccc3c(c2)nnn3-c2ccccc2)cc1	i	0.58
O=C(/C=C/c1ccc(Cl)cc1Cl)N1CCc2ccccc21	i	0.78
CCOc1ccc(NC(=O)CN(C)S(=O)(=O)c2cccs2)cc1	i	-0.56
CC(C)(C)CN1CCNC(=O)C1CC(=O)NCCc1ccccc1F (configuration not stated)	i	-0.18
CCNC(=S)N(CCCN(CC)CC)Cc1cc2cc3c(cc2[nH]c1=O)OCO3	i	-0.04

Another view of some results above:
compound,KCNQ2 inh,KCNQ2 inh baseline
CCOc1ccc(NC(=O)CN(C)S(=O)(=O)c2cccs2)cc1,i,-0.56
CC(C)(C)CN1CCNC(=O)C1CC(=O)NCCc1ccccc1F (configuration not stated),i,-0.18
CCNc1nc(NCC)nc(Oc2ccc(OCC)nn2)n1,i,-0.11

Continuation:
SMILES	KCNQ2 inh	KCNQ2 inh baseline
CCCOc1ccc(C(=O)Nc2cc(-c3nn4c(C)nnc4s3)ccc2C)cc1	i	2.4
O=c1c2ccccc2c(=O)n(-c2ccccc2)n1CCCCBr	i	-0.03
COCC(C)N=C1NN=C(c2cccs2)C(CC(=O)O)S1 (configuration not stated)	i	-1.2
COc1cccc(CN(C)C(=O)CSCC(=O)Nc2ccc(C)cc2)c1OC	i	-0.03
O=C(O)c1ccc(Cl)c(S(=O)(=O)N(Cc2ccccc2)c2ccc(F)cc2)c1	i	0.01
CCc1ccc(N2C(=O)CC(N3CCN(c4ccccn4)CC3)C2=O)cc1 (configuration not stated)	i	-0.12
Oc1c(C(Nc2ccccn2)c2cccnc2)cc(Cl)c2cccnc12 (configuration not stated)	i	-0.02
CCCCCCC(C)OC(=O)c1ccccc1C(=O)O (configuration not stated)	i	-0.11
CC(=O)N1CCOc2ccc(S(=O)(=O)N3CCN(c4cccc(C(F)(F)F)c4)CC3)cc21	i	0.67
O=C(OCc1nc2ccccc2s1)c1cccs1	i	-0.6
COc1ccccc1NC(=O)Cn1cnc2c(nnn2-c2ccc(C)cc2)c1=O	i	0.58
CCC1(c2ccccc2)NC(=O)N(CC(=O)N(C)CC(=O)Nc2c(C)cccc2C)C1=O (configuration not stated)	i	-0.06
CCCCN(Cc1ccccc1)S(=O)(=O)c1cc(Br)cc2c1N(C(C)=O)C(C)C2 (configuration not stated)	i	1
O=C(c1ccccc1)N1CCN(C(=O)c2ccc3c(c2)OCO3)CC1	i	-0.2
O=C(CCNS(=O)(=O)c1ccc(Br)cc1)NCc1ccc(F)cc1	i	0.03
COC(=O)Cn1c(SCc2ccccc2)nc2ccccc21	i	-0.31
Cc1cc2oc(C(=O)NCc3ccc(S(N)(=O)=O)cc3)c(C)c2cc1C	i	1.6
COc1cnc(SC)nc1Nc1ccc(C#N)cc1	i	-0.77
Cc1ccc2c(c1)c1ncnc(N3CCc4ccccc4C3)c1n2C	i	0.01
CCn1c(=O)cc(OCC(=O)N(C)c2ccccc2F)c2ccccc21	i	1.1

Single records (already shown):
Listed for `O=C(Nc1ccc(Cl)cc1)N[C@@H]1c2c(ccc3ccccc23)OC[C@@H]1CO` = KCNQ2 inh: i; KCNQ2 inh baseline: 0.53
Listed for `CCCCCCC(C)OC(=O)c1ccccc1C(=O)O` (configuration not stated) = KCNQ2 inh: i; KCNQ2 inh baseline: -0.11

Screens deposited in PubChem by Johns Hopkins Ion Channel Center.
